CR mimetic SO: reduction of superoxide in aged yeast, primary screen, HTS. S. cerevisiae aged cells, superoxide DHE fluorescence; stronger effect = lower value. superoxide response (% of plate mean), % at 10 µM. 330,000 compounds, 0.18% hits;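 active means superoxide response under a set limit, about three screen SD below normal, cut at about 65% in these data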;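 further: yeast aged for seven days with compound at 30 °C before DHE staining; 100% = average MFI of all compound-treated wells on the plate with controls excluded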
AGP1-GFP MLPCN: modulators of AGP1-GFP expression in yeast TOR pathway, primary screen, cell-based, multiplex flow cytometry, S. cerevisiae, MLPCN library; 3 h; GFP as percent of DMSO wells; GFP response vs DMSO, % at 10 µM; 320,000 compounds, 0.02% hits; AID 2066, 2009;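 active means GFP response relative to DMSO above a set limit, near screen average plus 3 SD, cut at about 150% in these data; inconclusive means fewer than 70 cells counted for the yeast strain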;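 further: median GFP channel fluorescence of the gated AGP1 strain per well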
VLA-4 inh: inhibition in human VLA-4 binding assay, primary screen, VLA-4 allosteric modulator project, MLPCN library, flow cytometry, VLA-4 expressing cells. 330,000 compounds, 0.2% hits. AID 2557, 2010. inhibition, % (about 7 µM as worked out from the volumes in the protocol). ligand binding flow cytometry; in the data active means inhibition above about 50%
MEX-5 binding: MEX-5 zinc finger RNA-binding disruptors – biochemical, C. elegans, fluorescence polarization, MLPCN library, primary screen; Zinc finger protein mex-5 (Caenorhabditis elegans), Q9XUB2; MEX-5/FITC-TCR2 RNA binding; stronger effect = lower value; activity score (negative = inhibition of binding), % at 10 µM; 300,000 compounds, 0.38% hits;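 active means inhibition past about -25% in most replicates, and total fluorescence under double the plate's negative control median, limit read from the data; inconclusive means replicates evenly split on the limit, or fluorescence at least double controls; inactive means too little inhibition in most replicates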;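 further: 0% = DMSO and -100% = 5 µM competing unlabeled TCR2 RNA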
GLD-1 RNA inh: GLD-1/TGE RNA complex disruptors, primary screen, biochemical, fluorescence polarization; inhibition, % at 5.96 µM; Female germline-specific tumor suppressor gld-1 (Caenorhabditis elegans), Q17339; purified GLD-1 + fluorescein TGE RNA; AID 2280, 2010; 320,000 compounds, 0.44% hits;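 active means percent inhibition above a per-plate cutoff, the plate mean of test compounds plus 3 SD, cut at about 30% in these data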;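 further: 0% = DMSO wells with GLD-1 and probe and 100% = wells lacking GLD-1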
CIT2-GFP yeast: modulators of CIT2-GFP expression in yeast, primary screen, S. cerevisiae, GFP fusion, multiplex flow cytometry, MLPCN library. S. cerevisiae CIT2-GFP strain, 3 h; 100 means same as DMSO wells. 320,000 compounds, 0.065% hits. AID 2029, 2009. GFP response vs DMSO, % at 10 µM;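 active means GFP response relative to DMSO above a set limit, near the screen mean plus 3 SD, cut at about 150% in these data; inconclusive means Fewer than 70 cells measured for a yeast strain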;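 further: ratio of well median GFP fluorescence to mean of DMSO wells on the plate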
GRK2 aptamer HTS: compounds blocking aptamer binding on GRK2 – biochemical, human GRK2, bead flow cytometry, HTS, primary screen; Beta-adrenergic receptor kinase 1 (Homo sapiens), P25098; FAM-aptamer displacement from GRK2; inhibition of aptamer binding, % at 10 µM; 330,000 compounds, 0.59% hits; AID 488847, 2010;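 active means inhibition of aptamer binding above 40%, roughly 3 SD of noise, on plates passing a quality check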;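 further: median bead fluorescence of bound FAM aptamer so fluorescent compounds give negative values; no value below 0 was filed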
Target sequence (P25098 whole entry, looked up): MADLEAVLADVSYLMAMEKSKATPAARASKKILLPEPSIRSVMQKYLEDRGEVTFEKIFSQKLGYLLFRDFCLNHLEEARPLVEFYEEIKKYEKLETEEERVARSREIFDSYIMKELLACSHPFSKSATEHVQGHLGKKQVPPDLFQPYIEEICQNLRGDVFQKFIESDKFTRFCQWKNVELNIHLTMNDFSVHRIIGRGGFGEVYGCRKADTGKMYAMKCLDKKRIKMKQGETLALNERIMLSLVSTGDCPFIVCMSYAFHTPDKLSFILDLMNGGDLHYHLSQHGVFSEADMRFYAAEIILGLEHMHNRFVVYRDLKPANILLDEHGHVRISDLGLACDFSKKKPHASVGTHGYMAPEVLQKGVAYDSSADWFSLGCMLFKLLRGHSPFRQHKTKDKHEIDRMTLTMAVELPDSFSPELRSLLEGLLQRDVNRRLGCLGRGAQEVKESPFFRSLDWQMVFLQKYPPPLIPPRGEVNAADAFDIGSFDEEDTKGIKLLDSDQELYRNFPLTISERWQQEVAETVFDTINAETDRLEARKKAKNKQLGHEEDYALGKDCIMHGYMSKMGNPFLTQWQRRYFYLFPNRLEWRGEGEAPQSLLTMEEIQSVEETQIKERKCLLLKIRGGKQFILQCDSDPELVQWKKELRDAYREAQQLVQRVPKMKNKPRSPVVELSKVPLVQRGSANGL
* hit, by the source's call; i = inactive; ? = inconclusive; nt = no result given; + = active, no number; & = joins results of further samples. A portion of the library; rates above refer to the full screens.

SMILES	CR mimetic SO	AGP1-GFP MLPCN	VLA-4 inh	MEX-5 binding	GLD-1 RNA inh	CIT2-GFP yeast	GRK2 aptamer HTS
CN(CC(=O)Nc1cccc(F)c1)C(=O)c1cc(-c2ccco2)nc2ccccc12	118	104	8	0.8	12	99	16
Nc1ccn([C@@H]2O[C@H](CO)[C@@H](O)[C@@H]2O)c(=O)n1	106	88	53*	-1.9	4	77	2
Cc1ccc(O)c(NC(=S)NC(=O)c2ccccc2Cl)c1	105	91	-15	1.1	2	88	1
NC1=NC2(CCN(Cc3ccccc3)CC2)n2c(nc3ccccc32)N1	100	107	-4	2.6	2	94	0
CCN1CCN(C(=O)c2nn(-c3ccc(OC)cc3)c(=O)c3c2c2ccccc2n3C)CC1	90	101	3	0.3	-2	100	0
Clc1ccc(OCCOCCN2CCc3ccccc3C2)c(Cl)c1	99	100	0	-3.0	3	97	0
CCOC(=O)c1sc(Nc2nc3ccc(OC)cc3s2)cc1C	106	97	-18	3.5	4	91	1
COc1cc(NC(=O)c2ccc(N)nc2)cc(C(=O)Nc2cccc(C(F)(F)F)c2)c1	103	116	9	0.8	1	109	0
COc1cccc(-c2nc(C(N)=O)c3[nH]c(=O)n(-c4cccc(Cl)c4)c3n2)c1OC	102	102	21	-3.1	11	98	4
COc1ccc(C2NC(c3ccc(OC)cc3OC)C(C)C(=O)C2C)c(OC)c1 (stereo not given)	110	101	2	0.8	8	99	0
CCOc1cccc(C(=O)Nc2cccc(C(C)=O)c2)c1	101	94	19	0.5	-2	95	0
O=C(CSc1ccc(C(F)(F)F)cc1[N+](=O)[O-])NCCOc1ccccc1	88	105	0	-2.6	9	108	0
O=CNc1ccccc1	89	105	6	nt	2	94	1
Cc1ccc(-c2nn(-c3ccccc3)c3[nH]c(=O)c(CNCc4ccccc4)cc23)cc1	93	107	33	6.0	18	100	2
CCn1c(CNC(=O)COc2ccc(C(C)C)cc2)nnc1SCC(=O)Nc1ccccc1	101	101	19	2.7	9	99	2
CCCCOc1ccc(CNC(=S)N/N=C/c2ccc(OC)c(OC)c2)cc1	107	102	-7	0.2	9	98	0
O=c1/c(=C/c2ccc(O)cc2)sc2nc3cc(Br)cnc3n12	92	99	8	-0.6	-12	93	0
CCc1cc2c(NCCC(=O)O)ncnc2s1	99	105	8	2.9	-1	103	0
CN1C(=O)C(CC(=O)Nc2ccc(F)cc2)N(CCCc2ccccc2)C1=S (stereo not given)	98	106	3	-0.1	2	113	1
Cc1ccc(N=Cc2c(O)[nH]c3ccccc23)c([N+](=O)[O-])c1	102	106	19	0.0	5	105	1
COc1cc(NC(=O)c2nccn2C)cc(C(=O)Nc2cccc(C(F)(F)F)c2)c1	101	85	0	-0.1	2	78	7
CCOc1ccc(N2C(=O)/C(=C/c3ccc(C)o3)N(C)C2=S)cc1	98	97	5	-8.5	1	101	5
COc1cccc(NC(=O)COc2ccc(S(=O)(=O)NC(C)C)cc2)c1	87	108	-10	nt	-9	110	0
O=C(CSc1nc(C2CC2)nc2c1cnn2-c1ccccc1)Nc1c[nH]c(=O)[nH]c1=O	111	103	0	-1.5	6	97	2
Nc1ccc(C(=O)Oc2ccc([N+](=O)[O-])cc2)cc1	94	90	29	0.8	4	98	2

The final 2 compounds of the part above come first, to join the parts:
SMILES	CR mimetic SO	AGP1-GFP MLPCN	VLA-4 inh	MEX-5 binding	GLD-1 RNA inh	CIT2-GFP yeast	GRK2 aptamer HTS
O=C(CSc1nc(C2CC2)nc2c1cnn2-c1ccccc1)Nc1c[nH]c(=O)[nH]c1=O	111	103	0	-1.5	6	97	2
Nc1ccc(C(=O)Oc2ccc([N+](=O)[O-])cc2)cc1	94	90	29	0.8	4	98	2
O=C(Nc1ccccc1)c1ccccc1O	87	96	4	0.7	1	nt	0
CCn1c2ccccc2c2cc([N+](=O)[O-])ccc21	98	99	4	2.4	9	93	3
O=C(Cn1cnc2sc(-c3ccccc3)cc2c1=O)N1CCOCC1	89	105	11	0.4	-1	nt	0
CCC1CCCCN1C(=O)c1c[nH]c2ccc(S(=O)(=O)N(C)c3ccc(Cl)cc3)cc2c1=O (stereo not given)	126	93	17	1.4	6	86	4
Cc1ccc(Nc2nc(CSc3nnnn3-c3ccccc3)cc(=O)[nH]2)cc1	100	96	-7	0.1	2	112	2
Cc1ccc(C(C)C)c(O)c1	112	107	0	-0.1	5	106	0
CC1(C)NC(=O)N(CNc2cc(Cl)ccc2Cl)C1=O	109	85	-4	1.3	0	80	1
COc1ccc(-c2cc(-c3n[nH]c(=S)n3-c3cc(OC)ccc3OC)[nH]n2)cc1	106	100	6	-2.6	4	97	0
Cc1nc2cc(F)ccc2n1C1CCN(S(=O)(=O)c2ccccc2)CC1	91	104	-12	-2.3	0	96	2
NC(=O)c1nc(-c2cccs2)nc2c1[nH]c(=O)n2-c1ccc(F)cc1	111	99	34	-0.1	-1	95	16
C/C=C\C=C/C(=O)Nc1cccc(C2=NOC3(C2)C[C@@H](C(N)=O)N(C(=O)[C@H]2CCC(=O)N2)C3)c1 (stereo not given in full)	102	95	-1	0.3	-1	108	1
COC(=O)c1cccc(CN2C(=O)SC(Nc3ccc(C)cc3)C2=O)c1 (stereo not given)	85	97	18	-0.6	-1	96	1
O=C(Cn1cncc1-c1ccc([N+](=O)[O-])cc1)Nc1cccc2ccccc12	93	94	-5	-2.9	-1	97	0
COc1ccc(Nc2ncccc2C(=O)Nc2ccccc2)cc1	107	93	11	-1.8	6	76	4
N#CC(c1ccccc1F)(c1ncc(C(F)(F)F)cc1Cl)N1CCOCC1 (stereo not given)	87	105	1	0.1	-2	94	0
CN(C)CCCO[C@@H]1[C@H]2OC(C)(C)O[C@H]2O[C@@H]1[C@H](O)CO	109	89	2	nt	-9	108	2
CCOc1cc(S(=O)(=O)NCCN2CCOCC2)c(C)cc1C	113	96	5	-0.7	7	97	0
CC1=C(C(=O)Nc2cccnc2)C(c2ccncc2)n2nnnc2N1 (stereo not given)	80	101	6	-0.8	5	85	0
Cn1c(N/N=C2\CCCc3ccccc32)nc2c1c(=O)n(Cc1ccccc1)c(=O)n2C	108	102	13	-2.9	2	101	0
COc1ccc(NC(=O)C2(c3ccc(NC(=O)c4ccc(OC)c(OC)c4)cc3)CCCC2)cc1	120	98	-12	-0.1	5	99	1
CCOC(=O)c1c(NC2OC(=O)c3c2ccc(OC)c3OC)sc(C(=O)OC(C)(C)C)c1C (stereo not given)	103	92	18	0.2	1	90	3
N#Cc1cccc(Oc2ccc(-c3cnc4ccccc4n3)cc2)c1C#N	87	116	0	2.1	-3	97	4
CCC(=O)Nc1nc2ccccc2n1CCN(CC)CC	101	103	7	-2.8	5	101	1
Oc1c(I)cc(Cl)c2cccnc12	84	81	44	0.6	3	78	0
COc1ccc(CC(=O)Nc2nnc(-c3cccc([N+](=O)[O-])c3)s2)cc1	139	95	33	-1.8	-9	97	0

Next section; the last 6 above are carried over.
SMILES	CR mimetic SO	AGP1-GFP MLPCN	VLA-4 inh	MEX-5 binding	GLD-1 RNA inh	CIT2-GFP yeast	GRK2 aptamer HTS
COc1ccc(NC(=O)C2(c3ccc(NC(=O)c4ccc(OC)c(OC)c4)cc3)CCCC2)cc1	120	98	-12	-0.1	5	99	1
CCOC(=O)c1c(NC2OC(=O)c3c2ccc(OC)c3OC)sc(C(=O)OC(C)(C)C)c1C (stereo not given)	103	92	18	0.2	1	90	3
N#Cc1cccc(Oc2ccc(-c3cnc4ccccc4n3)cc2)c1C#N	87	116	0	2.1	-3	97	4
CCC(=O)Nc1nc2ccccc2n1CCN(CC)CC	101	103	7	-2.8	5	101	1
Oc1c(I)cc(Cl)c2cccnc12	84	81	44	0.6	3	78	0
COc1ccc(CC(=O)Nc2nnc(-c3cccc([N+](=O)[O-])c3)s2)cc1	139	95	33	-1.8	-9	97	0
CC(C)C(=O)Nc1ccc(C(=O)Nc2nnc(C(C)(C)C)s2)cc1	101	93	16	1.6	-11	72	0
Cc1nnc(SCc2nc(N)nc(Nc3ccccc3)n2)s1	96	102	-7	-0.1	3	100	5
Cc1cc2c(C)nc(N/N=C/c3ccc([N+](=O)[O-])cc3)nc2o1	117	93	14	-19	-5	89	1
COc1ccccc1CNC(=O)c1cnn2c(C(F)F)cc(C)nc12	104	98	-6	-1.1	3	101	0
CN1[C@@H]2CC[C@H]1CC(OC(=O)C(CO)c1ccccc1)C2 (stereo not given in full)	99	98	11	1.0	4	91	1
CCOC(=O)c1cnn(-c2ccccc2)c1NC(=O)c1ccc(C)cc1	98	98	14	0.6	5	93	0
Cc1nc2ccccc2n1Cc1ccc(Cl)cc1	96	87	7	3.5	0	95	1
C[C@@H]1C[C@H]2[C@@H]3CCC4=CC(=O)C=C[C@]4(C)[C@@]3(F)[C@@H](O)C[C@]2(C)[C@@]1(O)C(=O)CO	101&113	61&104	17&2	1.7	2&5	87&94	0&1
COC(=O)NNC(=O)c1ccc(C(C)(C)C)cc1	106	95	16	0.5	1	92	0
C#C[C@]1(O)CC[C@H]2[C@@H]3[C@H](C)CC4=C(CCC(=O)C4)[C@H]3CC[C@@]21C	101	97	11	-0.6	7	88	4
COc1cc2c(c(OC)c1OC)-c1ccc(OC)c(=O)cc1[C@@H](NC(C)=O)CC2	96	86	0	0.5	1	93	0
CCOC(=O)c1sc(Nc2nc3c(OC)cccc3s2)cc1C	109	89	25	1.0	5	94	0
CCN1C(=O)/C(=C/c2nc3ccccc3c(=O)[nH]2)c2ccccc21	96	89	5	nt	0	92	4
Brc1ccc(C2=CC(c3ccco3)n3ncnc3N2)cc1 (stereo not given)	80	90	-2	-46*	158*	106	4
CCCCn1nnnc1NCc1ccc(C)s1	80	89	-14	-1.1	0	72	2
COC(=O)c1sc2nc(-c3ccco3)ccc2c1N	97	86	-19	-4.4	1	102	5
COc1ccccc1C1/C(=C(/O)c2ccccc2)C(=O)C(=O)N1CC(C)O (stereo not given)	81	96	8	2.8	10	102	0
O=C(CCc1ccc(S(=O)(=O)NC2CCCCC2)cc1)NCc1ccccc1	111	78	3	1.7	-6	87	1
O=C(Nc1cccc(-c2nc3ccccc3o2)c1)c1cccnc1	102	98	-19	-2.0	1	87	0
CCN(CC)CCn1c(NC(=O)c2ccc(C(F)(F)F)cc2)nc2ccccc21	103	105	12	3.5	2	99	0
O=C(COc1ccc2ccccc2c1)N/N=C/c1ccccn1	92	89	-9	-0.5	4	92	0
COc1ccc(N(C(C)=O)S(=O)(=O)c2cccc3cccnc23)cc1	88	92	16	-1.0	1	98	0
COc1cccc2c1C(=O)c1c(O)c3c(c(O)c1C2=O)C[C@](O)(C(C)=O)C[C@H]3O[C@@H]1C[C@@H](N)[C@@H](O)[C@@H](C)O1	132	91	i	?	+	94	7
Cc1cc(CSc2ccccc2)ccc1NC(=O)COc1ccccc1	95	100	3	2.3	0	89	1
O=C1C2ON(c3ccc(Cl)cc3)C(c3ccco3)C2C(=O)N1c1ccccc1 (stereo not given)	107	90	6	0.8	4	87	0
COCCNc1nc(CSc2ccccc2)nc2sc(C)c(C)c12	118	93	34	0.7	6	94	0
O=[N+]([O-])c1ccc(F)cc1F	107	97	9	nt	-2	95	0

Screens as filed in PubChem.
